Source: PubChem (ICCB-Longwood Screening Facility, Harvard Medical School)
BasE inh – blocks the Acinetobacter baumannii siderophore enzyme BasE; actives 0.1% (n = 84,000); purified BasE, fluorescence polarization binding displacement; AID 485350; inhibition, % (concentration not given with the values);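 active = both replicates above 25% with normal brightness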;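 note: 0% = negative plate control signal and 100% = positive plate control signal; stock transfer was 100 nL into about 30 µL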
KSHV LANA nucl – inhibitors of KSHV LANA binding to nucleosomes | z-score (test concentration not listed) | actives 0.3% (n = 51,000) | FITC-LANA1-23 / chicken nucleosome fluorescence polarization; hits give low values;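 active = both repeat wells score below -2 in polarization z-score versus plate sample wells, excluding overly bright wells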;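 note: 100 nL library stock added to about 30 µL; numbers are from one replicate; some results filed as inactive read as strong as hits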
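System – purified chicken nucleosomes with FITC-labelled LANA N-terminal peptide (1-23) · Amount – 240 nM purified chicken nucleosomes (480 nM peptide binding sites), final · Also added – 50 nM FITC-LANA1-23 probe · Medium – TEN-BT buffer, pH 7.5 · Incubation – compound with peptide–nucleosome mix 10–45 min at room temperature · Detection – fluorescence polarization, ex 480 nm, em 535 nm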
* = called active by the depositor; x = not tested or not shown; & = joins results of further samples. Some of the compounds tested, so the mix of outcomes need not match the whole.

SMILES | BasE inh | KSHV LANA nucl
Cc1ccccc1-n1c(SCc2ccc(F)cc2Cl)nnc1-c1cc2occc2n1C | 1.9 | 0.029
COc1cc(C=Nc2ccc3[nH]c(=O)[nH]c3c2)ccc1OC(C)=O | -0.5 | -0.577
Cc1ccc(C(=O)C(O)c2ccc(C)cc2)cc1 (stereo not given) | 0.7 | x
CN(C)/C=C1\N=C(SCc2c(Cl)cccc2Cl)NC1=O | 1.5 | x
O=S(=O)(Oc1ccccc1N1CCCCC1)c1ccc(-c2ccccn2)s1 | x | -1.06
CC(C)c1ccc(NC(=O)C2CC(=O)N(C3CCCC3)C2)cc1 (stereo not given) | -0.9 | -0.265
O=C(Nc1ccccc1N1CCOCC1)NC1CCN(C(=O)OCc2ccccc2)CC1 | -0.1 | x
C=CCSc1nnc(-c2ccccc2)n1-c1ccccc1 | 2.5 | -0.793
CSc1sc(/C(C)=N\O)c2c1/C(=N\O)CC(C)(C)C2 | 2.4 | x
COc1ccc(NC(=O)N(CCN(C)C)Cc2cc3cc(OC)ccc3[nH]c2=O)cc1 | -3.8 | 2.15
Cc1ccc2c(CC(=O)NC3CCCC3)coc2c1 | 0.9 | 0.147
CCOC(=O)N=c1oc2cc(Cl)c(Cl)cc2o1 | 1.7 | 0.0105
O=C(c1ccccc1)N1CCN(c2ccc(F)cc2)CC1 | -0.9 | -0.394
CC(=O)Nc1ccc(S(=O)(=O)N(C)CC(=O)N2CCN(C(=O)c3ccco3)CC2)cc1 | -3.6 | x
O=C(CSC1=N/C(=C\c2ccc(F)cc2)C(=O)N1Cc1ccco1)N1CCCC1 | -4.7 | x
CC1(C)CN(c2ccc(C(F)(F)F)cc2)C1=O | x | -0.718
Cc1cc(C)nc(SCC(=O)N(c2ccccn2)c2ccccn2)n1 | 1.2 | x
Cc1noc(C)c1COc1cc2ccccc2cc1C(=O)OCc1cc(=O)n2c(C)csc2n1 | -1.5 | x
Cn1c(=O)c(=O)n(C)c2cc(NC(=O)C(C)(C)C)ccc21 | -3.5 | 1.13
Cc1c(C(=O)OC2CCCCC2=O)oc2ccc(Br)cc12 (stereo not given) | 0.3 | x
CC1=C/C(=N\Nc2ccccc2Cl)CC1 | 0.8 | x
COc1ccc(NC(=O)c2ccc(COCC(F)(F)C(F)F)cc2)cc1 | 3.0 | 0.69
CCC(c1nnnn1Cc1ccccc1)N1CCN(c2cccc(Cl)c2)CC1 (stereo not given) | 0.5 | 0.624
Cc1nnsc1C(=O)Nc1ccc(CN2CCS(=O)(=O)CC2)cc1 | 0.3 | x
CCOC(=O)CC1Sc2ccccc2N=C1SCC(=O)Nc1ccc(Cl)cc1Cl (stereo not given) | 5.2 | x
CCn1c(C(=O)N2CCC(C(=O)NCCc3ccc(OC)c(OC)c3)CC2)cc2sccc21 | -1.3 | 0.581
COc1ccc(-c2c3c([nH]c(=O)c2C#N)-c2ccccc2CC3)cc1 | 1.4 | 0.184
CC(=O)n1c(=S)[nH]c2ccccc21 | 8.7 | 0.53
OC1CCNCC1 | 2.0 | x
O=C1CSc2ccccc2N1 | -0.7 | x
O=C(CCCc1ccccc1)Nc1ccccc1C(=O)O | -1.6 | -0.511
O=c1c2ccccc2nc(-c2ccccc2)n1OCc1ccc(Br)cc1 | -0.2 | x
O=C(CCCc1nnc2c(=O)n(-c3ccc(Cl)cc3)ccn12)NCCN1CCCC1 | 0.2 | -0.21
CCc1ccc(NC(=O)Cn2nc(-n3cccc3)c3c(C)cc(C)nc32)cc1 | -1.2 | 0.532
CC(=O)N1C(=O)/C(=C2\SC(=S)N(C(C)C(=O)O)C2=O)c2ccccc21 (stereo not given) | -1.4 | 2.53
O=C(O)c1cccnc1 | 2.6&-0.6 | -0.529&-0.495&-0.837
CC(C)(C)C1=NN(C(=O)c2cccc(S(=O)(=O)N3CCOCC3)c2)C(=O)C1 | 1.5 | x
Cc1nn(-c2ccccc2)c(C)c1/C=C(\C#N)S(=O)(=O)c1ccccc1 | 1.3 | 0.124
COC(=O)C1=C(C)N(Cc2cccnc2)C(=O)/C1=C\c1cccc(Cl)c1 | 0.9 | 0.831
Cc1ccnc(NS(=O)(=O)c2ccc(C3CCCCC3)cc2)c1 | 5.2 | 0.324
CC(=O)N1c2ccc(S(=O)(=O)Nc3ccc(CN4CCCCC4)cc3)cc2CC1C (stereo not given) | -1.3 | -0.858
CCOC(=O)Cn1c(=O)cc(C)c2ccccc21 | x | 0.813
CCN(C(=O)C12CC3CC(CC(C3)C1)C2)C1CCS(=O)(=O)C1 (stereo not given) | 0.2 | -0.937
CNc1c(NC(=O)Nc2ccc(F)cc2)c(=O)oc2ccccc12 | -1.6 | 1.8
O=C(O)C1CC1(C(=O)O)C(=O)O (stereo not given) | -1.7 | -0.107
CC(C)(C)OC(=O)NCCN1CCNCC1 | 0.9 | 0.0385
Cn1nc(C(=O)Nc2sc3c(c2C(N)=O)CCC3)ccc1=O | 0.7 | x
CC1(C)NC(=O)N(c2ccccc2)N1 | -1.0 | x
CCOC(=O)CN1CC23C=CC(O2)C(C(=O)NCc2ccc(F)cc2)C3C1=O (stereo not given) | 13.0 | 0.469
CC(C)(C)NC(=S)NN1C2CSC1CS2 | 1.0 | 0.566
(list continues)
SMILES | BasE inh | KSHV LANA nucl
Cn1c(/C(C#N)=C(\O)Cc2ccccc2)nc2ccccc21 | -0.4 | 0.393
COC(=O)Cc1nc(NC(=O)c2nc(-c3ccccc3)oc2C)sc1C | 1.5 | -0.536
COc1ccc(-c2cc(C(F)(F)F)nc(SCCC(=O)Nc3cc(C)on3)n2)cc1 | 0.2 | 0.34
COc1cccc(C2=NN(C(=O)c3ccccc3Cl)C(c3ccco3)C2)c1 (stereo not given) | -3.9 | x
COC(=O)c1sc(NC(=O)c2cc3c(s2)CCCC3)nc1C | -1.9 | 2.77
c1ccc(-c2nnc(COc3ncnc4c3cnn4-c3ccccc3)o2)cc1 | 13.2 | x
NC(=O)c1cc(S(=O)(=O)N(CCc2ccncc2)CC2CCCO2)cs1 (stereo not given) | -8.0 | x
Cc1cc(C(=O)NN=C2CCCCC2)c2ccccc2n1 | 0.1 | -0.245
Cc1cc(C)nc(SCC(=O)c2c[nH]c3ccccc23)n1 | -2.8 | -3.03
CC(=O)Nc1ccc(OCc2nnc(C)o2)cc1 | 1.6 | x
Cn1ccnc1S/C=C/C(=O)c1ccc(Cl)cc1 | -1.1 | 0.0855
O=C(Nc1ccc(N2CCCCC2)cc1)c1ccc(F)cc1 | 0.7 | -0.183
O=C(CSc1nccn1-c1cccc(Cl)c1)Nc1ccccc1 | -2.3 | 0.449
CCNC(=S)N1CCN(C(=O)c2ccco2)CC1 | -1.2 | 0.243
O=C(/C(=N/O)n1cncn1)c1ccc(Cl)cc1Cl | 1.2 | -0.495
O=C1NCCCCC1NS(=O)(=O)c1cccc2ccccc12 (stereo not given) | -0.3 | x
N#C/C(=C/c1ccc(C(=O)O)cc1)C(=O)Nc1ccccc1 | 1.9 | -0.184
Cc1ccc(C)n1NC(=O)c1ccncc1 | x | 0.0465
Cc1n[nH]c(C)c1Cc1ccc(O)cc1 | x | 0.526
COc1ccc2oc(=O)cc(-c3cc4ccccc4o3)c2c1 | 2.2 | -0.251
CC/C(C)=N/Oc1nc(NC(=O)NS(=O)(=O)c2ccccc2Cl)nc(N(C)C)n1 | -0.2 | 0.122
Clc1ccc2c(c1)c1cc(Cl)ccc1n2CN1CCCCC1 | 3.6 | x
O=C(NCc1ccc2c(c1)OCO2)c1ccncc1 | 2.4 | x
COc1ccc(NC(=O)C2C3C=CC4(O3)C2C(=O)N(Cc2cccnc2)C4C(=O)NC2CCCCC2)cc1 (stereo not given) | -0.1 | -2.05
CN(C(=O)CSc1nc(-c2ccco2)cc(C(F)(F)F)n1)c1ccccc1 | 1.3 | -0.693
O=C(NC(CC(=O)N1CCN(C(=O)c2ccco2)CC1)c1ccccc1)c1ccccc1Cl (stereo not given) | -4.4 | x
COc1ccccc1NS(=O)(=O)c1ccc2oc(SCC(=O)c3ccc4c(c3)NC(=O)CO4)nc2c1 | 2.6 | x
CC(=O)Oc1cccc(C(=O)N(C(C)C)C(C)C)c1 | 2.2 | -0.927
CSc1nsc(SCC(=O)c2ccccc2)n1 | -1.1 | -0.339
C=CCn1c(COc2ccc(F)cc2)nnc1SCC(=O)c1ccc[nH]1 | -2.8 | x

Part of the list above in a different format:
SMILES	BasE inh	KSHV LANA nucl
Clc1ccc2c(c1)c1cc(Cl)ccc1n2CN1CCCCC1	3.6	x
CC/C(C)=N/Oc1nc(NC(=O)NS(=O)(=O)c2ccccc2Cl)nc(N(C)C)n1	-0.2	0.122
CC(=O)Oc1cccc(C(=O)N(C(C)C)C(C)C)c1	2.2	-0.927
O=C(NC(CC(=O)N1CCN(C(=O)c2ccco2)CC1)c1ccccc1)c1ccccc1Cl (stereo not given)	-4.4	x
COc1ccccc1NS(=O)(=O)c1ccc2oc(SCC(=O)c3ccc4c(c3)NC(=O)CO4)nc2c1	2.6	x
O=C(NCc1ccc2c(c1)OCO2)c1ccncc1	2.4	x
C=CCn1c(COc2ccc(F)cc2)nnc1SCC(=O)c1ccc[nH]1	-2.8	x

The list continues:
SMILES | BasE inh | KSHV LANA nucl
CC1C(=O)ON(c2ccccc2)C(=O)N1C (stereo not given) | 3.8 | x
O=C(c1cccc(-c2nnc(-c3ccccc3)o2)c1)N1CCCCC1 | -3.0 | 1.18
CN(C)CCNC(=O)Nc1ccc(F)cc1F | 0.5 | 0.633
CCOC(=O)c1cc(-c2ccc(OC)c(S(=O)(=O)N(C)Cc3ccccc3)c2)on1 | -3.2 | 0.287
C=CCNc1nc(C(=O)OCC2COc3ccccc3O2)cs1 (stereo not given) | 2.1 | x
COc1cccc(-c2nc(CC(=O)OCC(=O)NC3CCS(=O)(=O)C3)cs2)c1 (stereo not given) | -0.3 | x
CCn1c(CN2CCCCCC2=O)nnc1SC(C)c1nc2ccccc2c(=O)[nH]1 (stereo not given) | -1.0 | x
Cc1ccc(S(=O)(=O)N(Cc2ccccc2)Cc2ccco2)cc1 | 0.6 | -0.547
CCCNc1nc2ccccc2s1 | 0.6 | -0.104
Cc1cc(N2CCCC2=O)c(N)cc1N | 0.8 | -1.01
O=c1c(Br)cccc(Br)c1O | 0.4 | -0.508
Cc1cc(C)nc(Nc2ccc(O)cc2)n1 | 1.5 | 0.209
O=C(NCCCN1CCN(c2ccccc2F)CC1)c1ccc(CS(=O)(=O)c2ccc(Br)cc2)o1 | 3.7 | 0.215
CCOC(=O)c1c(-c2cccc(N)c2)cn2ccccc12 | x | -0.743
CC(c1ccco1)N(C(=O)C12CC3CC(CC(C3)C1)C2)c1ccccn1 (stereo not given) | -1.1 | x
C=CCc1cc2c(C)cc(=O)oc2c(I)c1O | -0.6 | -0.394
CC1(C)CC(=O)C(N=Nc2cccc(F)c2C#N)=C(O)C1 | 0.2 | 0.795
CC(=O)Nc1ccc(N(C)C(C)=O)cc1 | -1.6 | 0.142
COC(=O)c1oc2nc(C)cc(C)c2c1N | 1.1 | -0.034
COc1ccc(N=Cc2c(O)n(C3CCCCC3)c(=O)n(C3CCCCC3)c2=O)cc1 | 4.7 | 0.814
O=C(Cc1coc2ccc3ccccc3c12)N1CCN(c2ccccc2)CC1 | -2.7 | 1.12
NNC(=S)/N=C/c1ccco1 | 0.8 | x
COC(=O)c1cn(CCC#N)nc1-c1cccs1 | -0.5 | -0.553
CC(C)OC(=O)c1cc2c(ccn2C)n1Cc1ccc(Cl)cc1Cl | 2.4 | -0.429
CCOC(=O)c1c(NC(=O)CN2CCCCC2)sc2c1CCCC2 | -0.6 | -0.508
CCc1ccccc1NC(=O)CC1CS(=O)(=O)CC1CC(=O)Nc1ccccc1CC (stereo not given) | -0.9 | x
Cc1cc(/C=C2\C(=O)NC(=S)N(C)C2=O)c(C)n1-c1ccc(C(=O)O)cc1 | 1.2 | x
Cc1nnc(N(Cc2ccco2)C(=O)c2cccc(C#N)c2)s1 | -0.4 | 1.23
COc1ccc(NCC(=O)N/N=C/C2CCCCC2)cc1 | -0.1 | x
Cc1cc(NC(=O)C2CC(=O)N(C(C)(C)C)C2)no1 (stereo not given) | 2.7 | 0.224
COc1ccccc1N(C)S(=O)(=O)c1ccc(C(=O)NC(C)(C)C)cc1 | 0.3 | x
Cc1c(N=Nc2ccc(O)cc2)c(=O)n(-c2ccccc2)n1C | 1.0 | x
Cn1c(=O)cc(OCC(=O)NC2CCCCC2)c2ccccc21 | 0.8 | 0.504
COc1ccc(C2CC(c3ccccc3)=NN2C(=O)COc2ccc(-n3cnnn3)cc2)cc1 (stereo not given) | -0.1 | x
COc1ccc(-c2nnc(SCC(=O)N3CC(C)OC(C)C3)n2C2CCCCC2)cc1OC (stereo not given) | 0.7 | x
Nc1ccc2nc(CCCO)[nH]c2c1 | -0.7 | 2.47
CN(C)S(=O)(=O)c1cccc(C(=O)NC2=NCCS2)c1 | -1.9 | x
COc1ccc(Cl)cc1-c1nnc(SCC(=O)NC2CC3CCC2C3)o1 (stereo not given) | -1.3 | -0.454
Cc1cc(C)cc(NC(=O)Nc2ccccc2)c1 | 3.7 | -0.34
Cc1cc(=O)[nH]c(NCCO)n1 | 0.3 | 0.156
CC1C(c2ccc(Cl)cc2)=[N+]([O-])C(C)(C)N1O (stereo not given) | 2.8 | -0.451

Complete entries, quoted from the list. Values in the order: BasE inh	KSHV LANA nucl
COc1ccc(-c2nnc(SCC(=O)N3CC(C)OC(C)C3)n2C2CCCCC2)cc1OC (stereo not given) is entered as 0.7	x
Cc1cc(C)cc(NC(=O)Nc2ccccc2)c1 is entered as 3.7	-0.34
